LANA-H2B inh: blocks KSHV LANA binding to histone H2A/H2B; Q9QR71; hit rate 0.6% among 320,000; cell-free LANA-H2A/H2B peptide, fluorescence polarization; inhibition, % (no concentration beside the values); AID 2629; in the data active means inhibition mostly above about 10%, no sharp cut-off; inactive means mostly below about 6.7%;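 further: stock transfer was 7.5 nL into about 10 µL; 0% = median of vehicle wells and 100% = median of positive control wells; one replicate is shown; the record names a cut of 25% in any replicate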
Beta2AR agonist: agonists of human beta-2 adrenergic receptor inducing internalization | P07550 | Am2.2-beta2AR cells, FAP receptor internalization, flow cytometry; reference of the scale not given here | response, % (test concentration not listed) | hit rate 0.43% among 340,000 | AID 504454;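 active means response above a set limit, near 3 SD of response in nonfluorescent compounds, cut at about 42% in these data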;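 further: stock transfer was 100 nL into about 11 µL; a reference agonist was the positive control; negative values mostly stem from fluorescent compounds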
Target sequence (P07550 whole entry, looked up): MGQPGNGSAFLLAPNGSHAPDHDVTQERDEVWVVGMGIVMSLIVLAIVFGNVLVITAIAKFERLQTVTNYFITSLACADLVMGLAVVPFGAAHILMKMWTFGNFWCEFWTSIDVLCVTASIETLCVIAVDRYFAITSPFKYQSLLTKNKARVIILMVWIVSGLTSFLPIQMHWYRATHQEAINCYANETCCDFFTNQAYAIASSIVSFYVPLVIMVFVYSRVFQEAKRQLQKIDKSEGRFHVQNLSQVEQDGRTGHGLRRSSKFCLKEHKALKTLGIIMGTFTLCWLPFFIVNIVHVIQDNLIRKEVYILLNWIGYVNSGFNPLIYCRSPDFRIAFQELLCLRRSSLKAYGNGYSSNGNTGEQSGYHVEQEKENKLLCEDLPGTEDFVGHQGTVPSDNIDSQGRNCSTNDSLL
T cruzi inh: blocks replication of Trypanosoma cruzi | T. cruzi beta-gal in NIH3T3, luminescence, 90 h | inhibition, % (concentration not given with the values) | hit rate 1.4% among 300,000;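 active means mean inhibition across valid replicates above about 55%, limit read from the data; inconclusive means mean below that limit but half or more replicates reach it; inactive means mean below it, under half of replicates reach it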;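 further: signal also drops with host cell toxicity which is not excluded here; 0% = plate median of DMSO wells and 100% = zero luminescence signal; higher percent means less beta-gal luminescence so fewer parasites; stock transfer was 50 nL into about 50 µL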
rRNA inh HTS: inhibits bacterial ribosomal RNA function over humanized ribosomes | E. coli WT GFP vs humanized-ribosome RFP mutants, fluorescence, 24 h; hits give low values; DMSO median 0, no signal -100 | GFP signal change (wild-type ribosome), % (concentration not given with the values) | hit rate 1.6% among 350,000;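 active means significant combined selectivity score with lowered wild-type GFP, culture density cut under 30%, mutant RFP and density less affected; inactive means any of these conditions unmet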; further: one replicate is shown; some compounds called inactive have numbers as strong as hits
A1 inh: inhibitors of the anti-apoptotic protein A1, read as caspase activation | MEF A1-2A-BIM cells, Caspase-Glo 3/7 luminescence, 3 h; percent of clofoctol response, vehicle zero | caspase activation, % (no concentration beside the values) | hit rate 0.066% among 330,000;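 active means over half of replicate activation scores above 10%, or exactly half above 10 with the replicate mean above 10; inconclusive means replicate mean below 10 yet half the replicates above 10; inactive means over half of replicates below 10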;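 further: wells of about 30 µL received 50 nL stock; many hits fall short of the cut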
ALR H2O2 inh: inhibitors of human sulfhydryl oxidase ALR; hit rate 3.8% among 290,000; purified ALR, DTT oxidation, H2O2 HRP-luminol luminescence; inhibition, % (test concentration not listed); P55789;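 active means mean and each replicate at 75% or more; inconclusive means only one of the two met; inactive means neither met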;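 further: stock transfer was 7.5 nL into about 7.5 µL; 0% = neutral wells and 100% = wells with inactivated enzyme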
Target sequence (P55789 whole entry, looked up): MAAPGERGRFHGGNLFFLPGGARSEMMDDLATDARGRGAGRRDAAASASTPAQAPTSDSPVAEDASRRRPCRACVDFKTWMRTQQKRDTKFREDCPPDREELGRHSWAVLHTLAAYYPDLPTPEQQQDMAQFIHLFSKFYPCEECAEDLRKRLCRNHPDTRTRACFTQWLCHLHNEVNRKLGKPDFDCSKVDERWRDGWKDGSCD
Calb FLC: affects C. albicans growth with fluconazole. AID 1979. hit rate 0.57% among 300,000. C. albicans CaCi-2 (fluconazole-resistant clinical isolate) + fluconazole, Alamar Blue growth, 48 h. growth inhibition, % (test concentration not listed);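 active means most replicates above 75%; inconclusive means exactly half above 75%; inactive means most below 75%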;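 further: all wells also contain fluconazole at 8 µg/ml as a sub-toxic cotreatment; 0% = median of DMSO wells and 100% = median of geldanamycin control wells; wells of about 8 µL received 7.5 nL stock; the first replicate is given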
Beta apoptosis: blocks beta cell apoptosis; INS-1E cytokine-induced death, ATP luminescence, 48 h; percent of positive-control rescue, neutral wells zero; protection from apoptosis, % (no concentration beside the values); hit rate 0.8% among 300,000; AID 435005;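 active means all replicates at 75% or more, or half of them and the mean; inconclusive means half reach 75% but not the mean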;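 further: 0% = cytokine-treated negative control wells and 100% = positive control rescue; higher means more ATP so stronger rescue from cytokine killing; wells of about 40 µL received 100 nL stock; the first replicate is given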
rRNA inh HTS OD600: second read-out of rRNA inh HTS, no call of its own (marks repeat the call); OD600 change, %; measured here: OD600 growth;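 optical density of the mix in the first replicate; 0 = DMSO median and -100 = no signal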
rRNA inh HTS RFP: also measured in rRNA inh HTS; calls as there; RFP signal change, %; measured here: RFP humanized mutant strains;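 first replicate; 0 = DMSO median and -100 = no signal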
Starred values were filed as active, the others as inactive.

What do the screens show for `C[C@]12CC(O)C3C(CCC4=CC(=O)CC[C@@]43C)C1CCC2c1csc(-c2ccccc2)n1` (some centres undefined)?
LANA-H2B inh: -1.0; Beta2AR agonist: -4; T cruzi inh: 51; rRNA inh HTS: 18; A1 inh: -0.4; ALR H2O2 inh: -1; Beta apoptosis: 36; rRNA inh HTS OD600: 9; rRNA inh HTS RFP: 2.2

Results for Cc1cc(OCC(=O)Nc2ccccc2C(N)=O)c2c(C)cc(=O)oc2c1 ?
LANA-H2B inh: 2.2; Beta2AR agonist: -16; T cruzi inh: -2; rRNA inh HTS: 7; A1 inh: 0.0; ALR H2O2 inh: -35; Calb FLC: -8; rRNA inh HTS OD600: 6; rRNA inh HTS RFP: -3.7

How did CCCCC(c1nnnn1CS(=O)(=O)c1ccc(C)cc1)N1CCC(C(N)=O)CC1 (centres undefined) do in these assays?
Beta2AR agonist: 10; T cruzi inh: 5; rRNA inh HTS: -5; Calb FLC: -6; rRNA inh HTS OD600: -1; rRNA inh HTS RFP: -3.9

What do the screens show for `O=C(C(c1ccccc1)c1ccccc1)N1CCN(Cc2ccc(Br)cc2)CC1`?
LANA-H2B inh: -3.1; Beta2AR agonist: 4; T cruzi inh: 30; A1 inh: -0.1; ALR H2O2 inh: -8; Calb FLC: -4; Beta apoptosis: -6

What do the screens show for `O=C1N(Nc2ccccc2)C(c2ccc(Br)cc2)C12CCCCC2` (centres undefined)?
LANA-H2B inh: 3.3; Beta2AR agonist: 3; T cruzi inh: 15; A1 inh: 1.0; ALR H2O2 inh: 13; Calb FLC: -5; Beta apoptosis: 2

How did CC(=O)c1ccc(NC(=S)Nc2ccc(N3CCOCC3)cc2)cc1 do in these assays?
LANA-H2B inh: -1.1; Beta2AR agonist: -5; T cruzi inh: -12; rRNA inh HTS: -1; A1 inh: -0.3; ALR H2O2 inh: inconclusive; Calb FLC: -10; Beta apoptosis: -1; rRNA inh HTS OD600: 7; rRNA inh HTS RFP: 3.6

Results for CCc1ccc(NC(=O)CCNS(=O)(=O)c2cccc3nsnc23)cc1 ?
LANA-H2B inh: -5.5; Beta2AR agonist: -3; T cruzi inh: -13; A1 inh: 0.0; ALR H2O2 inh: 0; Calb FLC: 26; Beta apoptosis: 6

How did O=C(CC1C(=O)NCCN1Cc1cccc(Oc2ccccc2)c1)NCc1cccnc1 (centres undefined) do in these assays?
LANA-H2B inh: -3.8; Beta2AR agonist: -8; T cruzi inh: 7; rRNA inh HTS: 5; A1 inh: 0.8; ALR H2O2 inh: 0; Calb FLC: -7; Beta apoptosis: -7; rRNA inh HTS OD600: -1; rRNA inh HTS RFP: 2.8

How did Cc1ccccc1N1C(=O)C2C3CC(=O)C(c4ccccc43)C2C1=O (centres undefined) do in these assays?
LANA-H2B inh: -1.2; Beta2AR agonist: 1; T cruzi inh: -15; A1 inh: 0.1; ALR H2O2 inh: 0; Calb FLC: 0; Beta apoptosis: 0

How did CCN(CC)c1ncn(Cc2c(Cl)cccc2Cl)c2ncnc1-2 do in these assays?
Beta2AR agonist: 15; T cruzi inh: 29; A1 inh: 0.5; Calb FLC: 3; Beta apoptosis: 17

How did CC(C)(C)c1ccc(C(=O)NNC(=O)c2ccncc2)cc1 do in these assays?
LANA-H2B inh: -0.3; Beta2AR agonist: -3; T cruzi inh: -11; rRNA inh HTS: -17; A1 inh: 0.5; ALR H2O2 inh: -1; Calb FLC: -3; Beta apoptosis: 0; rRNA inh HTS OD600: -22; rRNA inh HTS RFP: -4.1

Results for COc1ccc(NC(=O)c2cc(-c3ccc(C)cc3)on2)cc1 ?
LANA-H2B inh: -0.9; Beta2AR agonist: 5; T cruzi inh: 2; rRNA inh HTS: -5; A1 inh: 0.1; ALR H2O2 inh: -8; Calb FLC: 3; Beta apoptosis: 4; rRNA inh HTS OD600: 0; rRNA inh HTS RFP: -4.5

What do the screens show for `CCCNC(=O)C1CCN(S(=O)(=O)c2ccc(Br)cc2)CC1`?
LANA-H2B inh: -0.3; Beta2AR agonist: -4; T cruzi inh: 0; A1 inh: -1.0; ALR H2O2 inh: 1; Calb FLC: 3; Beta apoptosis: 4

What do the screens show for `CCN(C(=O)Nc1ccccc1OC)c1c(N)n(Cc2ccccc2)c(=O)[nH]c1=O`?
LANA-H2B inh: 1.4; Beta2AR agonist: 17; T cruzi inh: -15; A1 inh: 0.4; ALR H2O2 inh: -6; Calb FLC: 3; Beta apoptosis: -6

What do the screens show for `c1ccc(N2CCN(c3ccccc3)C2c2cccs2)cc1`?
LANA-H2B inh: -0.5; Beta2AR agonist: 8; T cruzi inh: 13; A1 inh: 0.0; ALR H2O2 inh: 99*; Calb FLC: -15

Results for COc1ccc(/C(C)=N/Nc2ncc(Cl)cc2Cl)c(O)c1 ?
LANA-H2B inh: 2.7; Beta2AR agonist: -10; T cruzi inh: 6; rRNA inh HTS: 12; A1 inh: -0.5; ALR H2O2 inh: 1; Calb FLC: -9; Beta apoptosis: 61; rRNA inh HTS OD600: 4; rRNA inh HTS RFP: 1.0

What do the screens show for `Cc1cccc(NC(=O)CC2S/C(=N/c3nccs3)N(C)C2=O)c1` (centres undefined)?
LANA-H2B inh: 0.1; Beta2AR agonist: 0; T cruzi inh: 2; A1 inh: 0.9; ALR H2O2 inh: -5; Calb FLC: 0; Beta apoptosis: -2

Results for CCC1(c2ccc(F)cc2)NC(=O)N(CC(=O)c2ccc[nH]2)C1=O (centres undefined) ?
LANA-H2B inh: 2.2; Beta2AR agonist: 0; T cruzi inh: -5; A1 inh: -1.4; ALR H2O2 inh: -11; Calb FLC: -2; Beta apoptosis: -1

What do the screens show for `COc1ccc(CCNC(=O)CSc2nc(-c3ccco3)cc(C(F)(F)F)n2)cc1OC`?
LANA-H2B inh: -2.4; Beta2AR agonist: -10; T cruzi inh: -2; rRNA inh HTS: -6; A1 inh: 0.1; ALR H2O2 inh: 3; Calb FLC: -6; Beta apoptosis: -13; rRNA inh HTS OD600: 0; rRNA inh HTS RFP: -1.7

What do the screens show for `C/C=C\C(=O)Nc1cccc(C2=NOC3(C2)C[C@@H](C(N)=O)N(C(=O)c2ccc(Cl)cc2)C3)c1` (some centres undefined)?
LANA-H2B inh: -1.2; Beta2AR agonist: -4; T cruzi inh: -7; rRNA inh HTS: 5; A1 inh: -0.6; ALR H2O2 inh: -9; Calb FLC: 8; Beta apoptosis: -2; rRNA inh HTS OD600: 1; rRNA inh HTS RFP: 3.7

What do the screens show for `Cc1cc(S(=O)(=O)Nc2ccc(C(=O)NCc3cccnc3)cc2)ccc1F`?
Beta2AR agonist: 3; T cruzi inh: -7; rRNA inh HTS: -1; A1 inh: 0.7; Calb FLC: -6; Beta apoptosis: -12; rRNA inh HTS OD600: 0; rRNA inh HTS RFP: 2.2

How did O=C(O)/C=C/C(=O)NC1CCC(CC2CCC(NC(=O)/C=C/C(=O)O)CC2)CC1 (centres undefined) do in these assays?
LANA-H2B inh: 2.4; Beta2AR agonist: 13; T cruzi inh: -8; rRNA inh HTS: 19; A1 inh: -0.3; ALR H2O2 inh: -2; Calb FLC: -9; Beta apoptosis: -10; rRNA inh HTS OD600: 18; rRNA inh HTS RFP: 1.5

Results for CCOC(=O)C1=C(COC(=O)/C=C/c2cc(Br)ccc2F)NC(=O)NC1C (centres undefined) ?
LANA-H2B inh: -5.2; Beta2AR agonist: -5; T cruzi inh: -19; rRNA inh HTS: -7; A1 inh: -0.5; ALR H2O2 inh: -2; Calb FLC: 0; Beta apoptosis: -1; rRNA inh HTS OD600: 0; rRNA inh HTS RFP: -2.6

What do the screens show for `COc1ccc(C(=O)NC2CCCCCC2)cc1S(=O)(=O)N1CCCC1`?
Beta2AR agonist: -6; T cruzi inh: 9; rRNA inh HTS: 0; A1 inh: 1.5; Calb FLC: -11; Beta apoptosis: 1; rRNA inh HTS OD600: -8; rRNA inh HTS RFP: 5.3

How did COc1ccc(N(CC(=O)N2CCN(Cc3ccccc3)CC2)S(C)(=O)=O)cc1 do in these assays?
LANA-H2B inh: 5.0; Beta2AR agonist: -5; T cruzi inh: 6; rRNA inh HTS: 12; A1 inh: -0.5; ALR H2O2 inh: 3; Calb FLC: -4; rRNA inh HTS OD600: 11; rRNA inh HTS RFP: -0.1

How did Cc1onc(-c2c(Cl)cccc2Cl)c1CO/N=C(\C#N)c1c(Cl)cccc1Cl do in these assays?
LANA-H2B inh: -3.4; Beta2AR agonist: 3; T cruzi inh: 19; rRNA inh HTS: -3; A1 inh: 0.4; ALR H2O2 inh: -1; Calb FLC: 5; Beta apoptosis: 6; rRNA inh HTS OD600: 4; rRNA inh HTS RFP: 1.9

What do the screens show for `CCOC(=O)N/N=C/c1ccc(OC)c(O)c1`?
LANA-H2B inh: 5.3; Beta2AR agonist: 1; T cruzi inh: -24; rRNA inh HTS: 8; A1 inh: -1.3; ALR H2O2 inh: 94*; Calb FLC: -5; Beta apoptosis: -8; rRNA inh HTS OD600: 7; rRNA inh HTS RFP: 0.7

How did Cc1ccc(C2N=C(N)Nc3nc4ccccc4n32)cc1 (centres undefined) do in these assays?
LANA-H2B inh: 2.0; Beta2AR agonist: 11; T cruzi inh: -2; rRNA inh HTS: -11; A1 inh: 1.9; ALR H2O2 inh: -10; Calb FLC: 10; rRNA inh HTS OD600: -7; rRNA inh HTS RFP: 0.9

Results for CCOc1ccccc1CNCc1ccc(F)cc1 ?
LANA-H2B inh: -5.9; Beta2AR agonist: -1; T cruzi inh: -8; rRNA inh HTS: 11; A1 inh: 2.1; Calb FLC: 1; Beta apoptosis: 0; rRNA inh HTS OD600: 2; rRNA inh HTS RFP: -0.9

What do the screens show for `COCCn1c(SC2CCOC2=O)nc2ccccc2c1=O` (centres undefined)?
LANA-H2B inh: -2.1; Beta2AR agonist: -3; T cruzi inh: -3; rRNA inh HTS: 1; A1 inh: 0.6; ALR H2O2 inh: 0; Calb FLC: -9; Beta apoptosis: -9; rRNA inh HTS OD600: 0; rRNA inh HTS RFP: 1.7

Results for CCOC(=O)N1CCC(N2Cc3cccc(C(=O)N4CCN(c5cccc(C)c5C)CC4)c3C2=O)CC1 ?
LANA-H2B inh: 2.8; Beta2AR agonist: -7; T cruzi inh: 46; rRNA inh HTS: 0; A1 inh: -0.7; ALR H2O2 inh: -50; Calb FLC: 17; Beta apoptosis: 2; rRNA inh HTS OD600: 3; rRNA inh HTS RFP: -1.3

How did Cn1c(-c2sc3cc(C(F)(F)F)cnc3c2-c2cccnc2)n[nH]c1=S do in these assays?
LANA-H2B inh: 4.0; Beta2AR agonist: -5; T cruzi inh: 1; A1 inh: 0.2; Calb FLC: 8; Beta apoptosis: 9

Results for Cc1cc2nnc(SCC(=O)Nc3cc(S(=O)(=O)N4CCOCC4)ccc3Cl)n2c2ccccc12 ?
LANA-H2B inh: -4.6; Beta2AR agonist: 5; T cruzi inh: 11; A1 inh: 0.0; Calb FLC: -5; Beta apoptosis: 3

Assay outcomes (PubChem)

A portion of the library; rates above refer to the full screens.
